Screens: PubChem BioAssay, several laboratories
rRNA inh HTS: reduced GFP signal of wild-type E. coli, primary screen, bacterial rRNA inhibitor project, GFP/RFP fluorescence, OD600, single point; AID 720706, 2013; E. coli WT GFP vs humanized-ribosome RFP mutants, 24 h; stronger effect = lower value; DMSO median 0, no signal -100; actives 1.6% (n = 350,000); GFP signal change (wild-type ribosome), % (test concentration not listed);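 active means significant combined selectivity score with lowered wild-type GFP, culture density cut under 30%, mutant RFP and density less affected; inactive means any of these conditions unmet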; further: one replicate is shown; some compounds called inactive have numbers as strong as hits
AF4-AF9 inh: inhibitors of AF4 peptide binding to AF9, primary screen, biochemical, AlphaScreen, biotin-AF4 peptide, FLAG-AF9, single point | Protein AF-9 (Homo sapiens), P42568 | inhibition, % at 10 µM | actives 0.47% (n = 350,000);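 active means every replicate reaching a set inhibition limit, whatever the replicate mean, cut at about 25% in these data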;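 further: 0% = plate neutral control median and 100% = total signal loss; the record names both 10 and 1 µM as test concentration; the first replicate is given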
Target sequence (P42568 whole entry, looked up): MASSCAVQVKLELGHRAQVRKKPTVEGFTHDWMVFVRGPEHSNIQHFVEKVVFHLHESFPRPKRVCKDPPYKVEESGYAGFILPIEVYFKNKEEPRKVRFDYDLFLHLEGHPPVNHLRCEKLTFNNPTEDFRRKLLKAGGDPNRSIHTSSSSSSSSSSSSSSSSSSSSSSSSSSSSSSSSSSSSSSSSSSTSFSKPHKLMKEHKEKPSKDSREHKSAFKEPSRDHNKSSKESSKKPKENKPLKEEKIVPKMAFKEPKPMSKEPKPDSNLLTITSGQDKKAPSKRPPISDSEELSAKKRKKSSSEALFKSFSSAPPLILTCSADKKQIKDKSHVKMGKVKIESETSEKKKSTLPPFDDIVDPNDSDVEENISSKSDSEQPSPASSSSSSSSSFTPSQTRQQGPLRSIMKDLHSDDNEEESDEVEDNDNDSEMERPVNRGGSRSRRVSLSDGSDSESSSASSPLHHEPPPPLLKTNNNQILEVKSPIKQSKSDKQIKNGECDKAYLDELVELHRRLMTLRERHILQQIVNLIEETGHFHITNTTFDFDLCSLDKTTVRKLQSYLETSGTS
UCH37 inh: inhibitors of human UCH37 deubiquitinase, primary screen, biochemical, Ub-AMC cleavage, fluorescence. purified proteasome/UCH37. inhibition, % (test concentration not listed). actives 0.33% (n = 330,000). Ubiquitin carboxyl-terminal hydrolase isozyme L5 (Homo sapiens), Q9Y5K5. AID 588478, 2011;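 active means mean of two replicates above 20%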;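 further: 0% = compound-free wells with enzyme and 100% = wells lacking proteasome; stock transfer was 100 nL into about 20 µL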
Target sequence (Q9Y5K5 whole entry, looked up): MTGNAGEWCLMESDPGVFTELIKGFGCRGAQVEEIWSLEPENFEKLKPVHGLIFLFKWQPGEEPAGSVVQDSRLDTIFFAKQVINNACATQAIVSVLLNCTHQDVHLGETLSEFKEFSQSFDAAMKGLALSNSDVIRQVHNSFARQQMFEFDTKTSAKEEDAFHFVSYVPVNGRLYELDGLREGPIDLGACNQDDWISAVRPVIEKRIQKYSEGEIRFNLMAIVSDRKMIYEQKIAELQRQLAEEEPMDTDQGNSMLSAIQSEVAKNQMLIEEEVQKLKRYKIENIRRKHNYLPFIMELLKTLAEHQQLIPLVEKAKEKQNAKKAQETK
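assay system = human UCH37 enzyme supplied as purified proteasome complex | amount = proteasome at 0.15 nM in the dispensed enzyme solution | schedule = 30 min compound-proteasome preincubation then 25 min substrate reaction, room temperature | measured by = fluorescence, ex 355 nm, em 460 nm | benchmarks = no-proteasome wells (full inhibition) and compound-free wells (no inhibition)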
A1 inh: caspase 3/7 activation in MEF A1-2A-BIM cells, primary screen, A1 inhibitor project, cell-based, luminescence, HTS; Caspase-Glo 3/7 luminescence, 3 h; percent of clofoctol response, vehicle zero; caspase activation, % (concentration not given with the values); actives 0.066% (n = 330,000);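 active means over half of replicate activation scores above 10%, or exactly half above 10 with the replicate mean above 10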;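 further: wells of about 30 µL received 50 nL stock; many hits fall short of the cut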
FGF22 binding: binders of human FGF22 protein, primary screen, FGF22 synaptogenesis inhibitor project, biophysical, thermal shift, single point. Fibroblast growth factor 22 (Homo sapiens), Q9HCT0. recombinant FGF22 thermal shift, SYPRO orange fluorescence; percent of sucrose octasulfate shift, DMSO zero. calls only at 9.99 µM. actives 1.5% (n = 340,000). AID 651658, 2012;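 active means melting point raised past a set limit in the mean and every replicate; three in four hits are not shown here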
Target sequence (Q9HCT0 whole entry, looked up): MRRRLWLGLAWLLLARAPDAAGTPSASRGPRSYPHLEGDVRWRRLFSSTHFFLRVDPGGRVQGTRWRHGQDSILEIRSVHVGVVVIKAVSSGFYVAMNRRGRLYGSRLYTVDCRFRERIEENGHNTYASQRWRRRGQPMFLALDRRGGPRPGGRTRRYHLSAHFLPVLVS
Beta apoptosis: inhibitors of cytokine-induced beta cell apoptosis, primary screen, luminescence | INS-1E cytokine-induced death, ATP luminescence, 48 h; percent of positive-control rescue, neutral wells zero | protection from apoptosis, % (concentration not given with the values) | actives 0.8% (n = 300,000);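 active means all replicates at 75% or more, or half of them and the mean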;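 further: 0% = cytokine-treated negative control wells and 100% = positive control rescue; higher means more ATP so stronger rescue from cytokine killing; wells of about 40 µL received 100 nL stock; the first replicate is given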
T cruzi repl: inhibitors of intracellular T. cruzi growth, primary screen, luminescence, NIH3T3 host cells. T. cruzi beta-gal in NIH3T3, 90 h. inhibition, % (test concentration not listed). actives 1.4% (n = 300,000). AID 1885, 2009;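 active means mean inhibition across valid replicates above about 55%, limit read from the data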;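 further: signal also drops with host cell toxicity which is not excluded here; 0% = plate median of DMSO wells and 100% = zero luminescence signal; higher percent means less beta-gal luminescence so fewer parasites; stock transfer was 50 nL into about 50 µL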
Ecoli growth: E. coli growth inhibition, primary screen, OD600 | Escherichia coli growth, 23 h; stronger effect = lower value | OD600 absorbance (concentration not given with the values) | actives 0.21% (n = 330,000);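 active means OD600 absorbance below the run mean of sample wells minus 3.6 SD, in any replicate, cut at about 0.56 in these data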;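 further: stock transfer was 300 nL into about 60 µL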
rRNA inh HTS OD600: also measured in rRNA inh HTS; calls as there; OD600 change, %; measured here: OD600 growth;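 optical density of the mix in the first replicate; 0 = DMSO median and -100 = no signal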
rRNA inh HTS RFP: second read-out of rRNA inh HTS, no call of its own (marks repeat the call); RFP signal change, %; measured here: RFP humanized mutant strains;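 first replicate; 0 = DMSO median and -100 = no signal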
Starred values were filed as active, the others as inactive; i = inactive; x = no result given. Some of the compounds tested. The share of hits here may be higher or lower than overall.

SMILES	rRNA inh HTS	rRNA inh HTS OD600	rRNA inh HTS RFP	AF4-AF9 inh	UCH37 inh	A1 inh	FGF22 binding	Beta apoptosis	T cruzi repl	Ecoli growth
CCc1ccc(C(C)NC(=O)c2cc(C)oc2C)cc1 (stereo not given)	x	x	x	x	2.7	2.7	x	-4	-12	0.73
O=C(Nc1ccc(S(=O)(=O)Nc2nccs2)cc1)c1cc(-c2ccccc2Cl)nc2ccccc12	x	x	x	x	-4.5	0.8	x	-6	-6	0.76
N#C/C(=C\c1ccco1)C(=O)NCC1CCCO1 (stereo not given)	2	5	-1.1	-3.5	15	0.5	i	2	-13	0.65
CCN1C(=O)C(=Cc2cccc(OC)c2Oc2ccc([N+](=O)[O-])cc2[N+](=O)[O-])SC1=S	4	8	0.3	-8.1	7.9	-4.4	i	99*	15	0.67
CC(=O)Oc1ccc(C(=O)NCc2ccco2)cc1	-4	1	-2.5	6.9	1.2	-0.2	i	x	-17	0.7
CCOC(=O)c1c(C)oc2c(CN3CCN(C)CC3)c(Br)c(OC)c(O)c12	x	x	x	x	1.3	0.4	x	-4	-7	0.69
CCOc1ccc(S(=O)(=O)NCCC(=O)NCC(c2ccc(OC)cc2)N2CCCCC2)cc1 (stereo not given)	7	14	1.8	-1.1	4.7	1.2	i	-3	-6	0.67
Oc1c(Br)cc(Br)cc1/C=N/NC(=S)N[C@H]1CC2C=CC1C2 (stereo not given in full)	-31	-29	-1.1	-1.5	x	-0.1	i	73	-19	x
CN(Cc1ccc(Cl)cc1Cl)C(=O)CNC(=O)c1ccco1	-1	5	-3.8	-4.5	2.5	0.5	i	-5	-9	0.71
Cc1ccccc1C(=O)NC(=S)N(C)CCc1ccccn1	22	-9	-0.4	0.6	1.4	1.4	i	0	-25	0.72
O=c1cc(CSc2ccc(Cl)cc2)nc(N2CCOCC2)[nH]1	x	x	x	x	3.8	0.0	x	x	-13	0.68
CC(C)n1c(CCCO)nc2ccccc21	x	x	x	x	-0.3	-0.2	x	-1	-14	0.68
Cc1ccc(CC(=O)Nc2cccc([N+](=O)[O-])c2)cc1	6	17	3.3	-7.1	0.9	-0.1	i	1	-6	0.69
O=C(Nc1nc(-c2ccc(Cl)cc2Cl)cs1)c1ccc(OCC2CCCO2)cc1 (stereo not given)	4	-6	-4.6	-6.8	3.2	1.6	i	41	32	0.73
CC(C)CN(C(=O)CSc1nnc2ccccn12)C1CCS(=O)(=O)C1 (stereo not given)	x	x	x	1.7	-5.7	0.0	i	-11	x	0.71

Taken from above (2 entries):
SMILES	rRNA inh HTS	rRNA inh HTS OD600	rRNA inh HTS RFP	AF4-AF9 inh	UCH37 inh	A1 inh	FGF22 binding	Beta apoptosis	T cruzi repl	Ecoli growth
CCc1ccc(C(C)NC(=O)c2cc(C)oc2C)cc1 (stereo not given)	x	x	x	x	2.7	2.7	x	-4	-12	0.73
O=C(Nc1ccc(S(=O)(=O)Nc2nccs2)cc1)c1cc(-c2ccccc2Cl)nc2ccccc12	x	x	x	x	-4.5	0.8	x	-6	-6	0.76

Continuation:
SMILES	rRNA inh HTS	rRNA inh HTS OD600	rRNA inh HTS RFP	AF4-AF9 inh	UCH37 inh	A1 inh	FGF22 binding	Beta apoptosis	T cruzi repl	Ecoli growth
O=C(N/N=C/c1ccc(Cl)cc1)c1ccc2c(c1)OCO2	5	14	-4.4	0.6	x	-0.2	i	9	4	x
COC(=O)Cc1ccc(NC(=S)Nc2ccccn2)cc1	7	-2	-0.8	-3.0	1.6	-1.6	i	6	-18	0.69
Cc1ccc(C(C)C)c(OCC(=O)NNC(=O)Cn2[nH]c(=O)c3ccccc3c2=O)c1	5	5	1.3	-4.1	2.2	0.7	i	-2	x	0.71
Cc1ccc(C)c(OC(C)C(=O)Nc2nccs2)c1 (stereo not given)	-6	-7	-6.3	-0.8	5.0	-1.6	i	1	0	0.73
COC(=O)N/N=C/c1cn(Cc2c(Cl)cccc2Cl)c2ccccc12	-19	-26	-23	-2.0	x	0.3	i	4	17	x
CCOc1ccc(OCCC(=O)Nc2ccc(F)cc2C)cc1	0	-3	-1.8	0.9	-0.3	1.0	i	-6	1	0.67
COc1cccc(/C=N/Nc2nccnc2Cl)c1O	-52	-75	-10	3.8	x	x	i	x	34	x
O=c1oc(CCCO)cc2ccc(C#Cc3cccnc3)cc12	-13	-13	-6.9	2.6	-19	-1.5	i	-4	x	0.67
COc1ccc(Nc2ncccc2C(=O)Nc2ccccc2)cc1	x	x	x	x	2.1	0.1	x	-5	-3	0.72
O=C(CCS(=O)(=O)c1ccccc1)Nc1ccccc1-c1nc2ccccc2s1	0	5	-1.9	-1.6	1.5	-0.3	i	5	5	0.68
CC(=O)Nc1ccc(C(=O)NCC2CCCCC2)cc1	-1	2	-1.1	-2.1	-1.8	0.3	i	3	-1	0.67
Cc1noc(C)c1COC(=O)c1ccccc1Oc1ccccc1	x	x	x	x	3.4	0.6	x	1	-2	0.68
CC1CCCCN1C(=O)N[C@@H](Cc1ccccc1)C(=O)O (stereo not given in full)	x	x	x	x	5.4	-0.5	x	-7	6	0.68
Cc1nn(C)c(C)c1/C=C/C(=O)c1ccc(Cl)cc1Cl	-22	-24	-7.5	4.8	4.9	-0.1	i	50	14	0.62
O=C(CCCSCCCC(=O)NN=Cc1ccccc1)NN=Cc1ccccc1	-12	-9	1.7	1.6	-1.5	x	i	x	x	0.68
S=C(Nc1cccc(Cl)c1Cl)N1CCC2(CC1)OCCO2	6	7	-2.0	-0.4	-0.7	0.0	x	-6	-5	0.66
O=C(NCC1c2ccccc2CCN1C(=O)CN1C(=O)c2ccccc2C1=O)C1CCCCC1 (stereo not given)	x	x	x	x	1.2	-0.1	x	-7	-6	0.72
CCOCCn1c(=O)c2c(nc3n2CCN3c2ccc(CC)cc2)n(C)c1=O	-8	-38	-3.1	1.4	-7.8	0.0	i	3	0	0.72
COc1ccc(CNC(=O)C2CCCN(S(=O)(=O)N3CCC(C)CC3)C2)c(OC)c1 (stereo not given)	2	5	1.0	-4.1	3.7	0.4	i	-5	13	0.71
Cc1ccc2nc(NC(=O)CSc3nnc(C)c(=O)n3N)sc2c1	x	x	x	x	2.7	-2.4	x	-4	1	0.71
COc1ccc(NC(=O)C2=CC(c3ccc(C)cc3)=NS(=O)(=O)N2C)cc1	-2	-20	-11	-3.7	1.7	0.9	i	-4	6	0.77
O=C(NCCN1CCN(c2ccccc2)CC1)Nc1cccc(Br)c1	-5	-1	4.1	8.7	3.3	0.7	i	-6	1	0.61
CC1Cc2ccccc2N1C(=O)c1ccc(N2CCCC2)c([N+](=O)[O-])c1 (stereo not given)	-33	-55	-6.2	23	2.4	-0.1	i	11	23	0.69
CCN1CCN(c2ccc(N3CCN(S(=O)(=O)c4ccc(C)c([N+](=O)[O-])c4)CC3)nn2)CC1	2	18	2.4	2.0	-2.6	-0.1	i	x	10	0.68
CCCCc1cc(=O)oc2cc(C)c(CN3CCCC3)c(O)c12	x	x	x	x	-0.6	1.7	x	-1	-8	0.7
O=C(CN1C(=O)NC2(CCCCC2)C1=O)Nc1ccccc1N1CCCCC1	x	x	x	4.2	2.2	0.2	i	-7	x	0.68
CCCn1c(CN(Cc2ccccc2)Cc2ccccc2)nc2c1c(=O)n(C)c(=O)n2C	x	x	x	x	3.2	0.6	x	2	24	0.79
O=S(=O)(Cc1ccccc1)c1nc2ccccc2n1Cc1ccccn1	7	9	2.2	0.8	-0.2	0.2	i	-1	-5	0.66
COc1cccc(CNS(=O)(=O)c2csc(C(N)=O)c2)c1	7	7	0.4	-1.2	3.9	1.8	i	-2	0	0.7
CC1CC1C(=O)OCc1cc(=O)n2cc(Br)ccc2n1 (stereo not given)	x	x	x	x	-9.5	1.5	x	-18	6	0.71

Taken from the results shown (11 entries):
SMILES	rRNA inh HTS	rRNA inh HTS OD600	rRNA inh HTS RFP	AF4-AF9 inh	UCH37 inh	A1 inh	FGF22 binding	Beta apoptosis	T cruzi repl	Ecoli growth
Cc1ccc2nc(NC(=O)CSc3nnc(C)c(=O)n3N)sc2c1	x	x	x	x	2.7	-2.4	x	-4	1	0.71
COc1ccc(NC(=O)C2=CC(c3ccc(C)cc3)=NS(=O)(=O)N2C)cc1	-2	-20	-11	-3.7	1.7	0.9	i	-4	6	0.77
O=C(NCCN1CCN(c2ccccc2)CC1)Nc1cccc(Br)c1	-5	-1	4.1	8.7	3.3	0.7	i	-6	1	0.61
CC1Cc2ccccc2N1C(=O)c1ccc(N2CCCC2)c([N+](=O)[O-])c1 (stereo not given)	-33	-55	-6.2	23	2.4	-0.1	i	11	23	0.69
CCN1CCN(c2ccc(N3CCN(S(=O)(=O)c4ccc(C)c([N+](=O)[O-])c4)CC3)nn2)CC1	2	18	2.4	2.0	-2.6	-0.1	i	x	10	0.68
CCCCc1cc(=O)oc2cc(C)c(CN3CCCC3)c(O)c12	x	x	x	x	-0.6	1.7	x	-1	-8	0.7
O=C(CN1C(=O)NC2(CCCCC2)C1=O)Nc1ccccc1N1CCCCC1	x	x	x	4.2	2.2	0.2	i	-7	x	0.68
CCCn1c(CN(Cc2ccccc2)Cc2ccccc2)nc2c1c(=O)n(C)c(=O)n2C	x	x	x	x	3.2	0.6	x	2	24	0.79
O=S(=O)(Cc1ccccc1)c1nc2ccccc2n1Cc1ccccn1	7	9	2.2	0.8	-0.2	0.2	i	-1	-5	0.66
COc1cccc(CNS(=O)(=O)c2csc(C(N)=O)c2)c1	7	7	0.4	-1.2	3.9	1.8	i	-2	0	0.7
CC1CC1C(=O)OCc1cc(=O)n2cc(Br)ccc2n1 (stereo not given)	x	x	x	x	-9.5	1.5	x	-18	6	0.71

Remaining list, next part:
SMILES	rRNA inh HTS	rRNA inh HTS OD600	rRNA inh HTS RFP	AF4-AF9 inh	UCH37 inh	A1 inh	FGF22 binding	Beta apoptosis	T cruzi repl	Ecoli growth
O=C(Cn1c(C2CC2)nc2ccccc2c1=O)Nc1ccc(Br)cc1	x	x	x	x	2.8	0.9	x	-8	-1	0.76
O=C(Nc1ccc2oc(-c3ccccc3F)nc2c1)c1ccc2c(c1)OCCO2	0	-9	8.7	-3.0	-24	-0.3	i	5	26	0.72
CC(C)CCn1c(=O)c2ccccc2c2ccccc2c1=O	x	x	x	x	6.3	-0.4	x	2	x	0.7
O=C(O)c1ccc(CNCc2cccc(Cl)c2)cc1	12	13	1.3	-0.4	1.0	0.3	i	2	-3	0.68
CCN(CC)S(=O)(=O)c1cccc(NC(=O)COc2ccc(F)cc2Br)c1	-27*	21*	0.1*	-1.3	4.1	0.4	i	-2	4	0.69
Cc1ccccc1-c1nnc(SCc2ccccc2)o1	x	x	x	x	4.8	-0.1	x	x	22	0.69
CC(C)c1ccc(OCc2ccc(C(=O)N3CCN(c4ccccn4)CC3)cc2)cc1	x	x	x	x	2.1	0.3	x	0	33	0.76
CCOC(=O)c1ccc(NC(=O)NC2CC3CCC(C2)N3)cc1 (stereo not given)	-33	-29	-5.9	5.9	6.8	-0.1	i	-3	-2	0.66
